Bioassay records as filed in PubChem.
LANA-nucl inh: LANA-nucleosome interaction inhibition; FITC-LANA1-23 / chicken nucleosome fluorescence polarization; active compounds read low; z-score (test concentration not listed); actives 0.3% (n = 51,000);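 active means both repeat wells score below -2 in polarization z-score versus plate sample wells, excluding overly bright wells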;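 further: 100 nL library stock added to about 30 µL; numbers are from one replicate; some results filed as inactive read as strong as hits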
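Assay system: purified chicken nucleosomes with FITC-labelled LANA N-terminal peptide (1-23) / Probe or stimulus: 50 nM FITC-LANA1-23 probe / Compound dosing: pin-transferred compound, 100 nL / Times: compound with peptide–nucleosome mix 10–45 min at room temperature / Technique: fluorescence polarization, 480 nm excitation, 535 nm parallel and perpendicular emission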
BasE inh: inhibitors of Acinetobacter baumannii siderophore enzyme BasE | purified BasE, fluorescence polarization binding displacement | inhibition, % (no concentration beside the values) | actives 0.1% (n = 84,000) | AID 485350;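 active means both replicates above 25% with normal brightness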;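 further: 0% = negative plate control signal and 100% = positive plate control signal; stock transfer was 100 nL into about 30 µL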
* = called active by the depositor; x = not tested or not shown; & = joins results of further samples.

| SMILES | LANA-nucl inh | BasE inh |
| --- | --- | --- |
| CCCCNC(=O)N1CCc2cc(OC)c(OC)cc2C1c1ccccc1 (stereo not given) | x | -1.2 |
| CC(=O)NCCCCCC(=O)O | 1 | -1.8 |
| CN(C)C/C=C(/c1ccc(Br)cc1)c1cccnc1 | -0.22&-0.07 | -0.8 |
| CN1CCC(=C2c3ccccc3CCc3sccc32)CC1 | 1.2&0.001&0.85 | -3.6 |
| CC(C)Cc1ccc(C(C)C(=O)O)cc1 (stereo not given) | 0.0045&0.27&0.12 | -1.2 |
| C=CCN1C(=O)C(CC(C)C)NC1=S (stereo not given) | 0.41 | 0.2 |
| CC1=NN(c2ccccc2)C(=O)C1 | 0.22 | -1.1 |
| O=C(Cn1ccnc1[N+](=O)[O-])NCCO | 0.028&1.5 | -4.2 |
| COc1c(O)cc2c(c1O)C1OC(CO)C(O)C(O)C1OC2=O (stereo not given) | -0.31 | 3.9 |
| c1ccc(Cc2nc(-c3ccncc3)n[nH]2)cc1 | -0.3 | 0.8 |
| COC(=O)c1cccnc1 | x | -2.7 |
| COc1ccc(CN(CCN(C)C)c2ccccn2)cc1 | 0.06&0.47&-1.9&-0.29 | -2.9&-0.2 |
| C[C@]12CC3CC(N)(C1)C[C@@](C)(C3)C2 | 0.42&0.36 | x |
| O=C(OC1CC2CC3C[C@@H](C1)N2CC3=O)c1c[nH]c2ccccc12 (stereo not given in full) | -0.12 | x |
| O=C1N(c2ccccc2)c2ccccc2C1(Cc1ccncc1)Cc1ccncc1 | -0.17 | x |
| Cc1cc2c(s1)Nc1ccccc1N=C2N1CCN(C)CC1 | 0.24&-0.012&0.15 | x |
| COc1ccccc1OCC(O)COC(N)=O (stereo not given) | -0.4&0.83&-0.097 | -0.2&0.4 |
| Cc1coc2c1C(=O)C(=O)c1c-2ccc2c1CCCC2(C)C | -0.69&-0.0045 | 0.4 |
| CN(C)CCCN1c2ccccc2Sc2ccccc21 | -0.21&1.2&-0.15 | -2.2&-0.4 |
| CC(=O)O[C@]1(C(C)=O)CC[C@H]2[C@@H]3C=C(Cl)C4=CC(=O)[C@@H]5C[C@@H]5[C@]4(C)[C@H]3CC[C@@]21C | 1.5 | x |
| N=C(N=C(N)N)N1CCOCC1 | 1.2&1.6 | -2.5 |
| CCCOc1ccccc1-c1nc2n[nH]nc2c(=O)[nH]1 | -0.001&-0.086&0.71&-0.48 | 2.3&1.8&1.4 |
| CC[C@]1(O)CC2CN(CCc3c([nH]c4ccccc34)[C@@](C(=O)OC)(c3cc4c(cc3OC)N(C)[C@H]3[C@@](O)(C(=O)OC)[C@H](OC(C)=O)[C@]5(CC)C=CCN6CC[C@]43[C@@H]65)C2)C1 (stereo not given in full) | 0.54&-0.22 | x |
| NS(=O)(=O)c1cc2c(cc1C(F)(F)F)NC(Cc1ccccc1)NS2(=O)=O (stereo not given) | -0.56&0.54&-0.059 | -2.6&-0.9 |
| COc1nc(C)nc(Cl)c1NC1=NCCN1 | -0.34&-0.43 | -1.8 |
| O=C1NCC2(CCN(CCc3ccccc3)CC2)O1 | 0.013&0.63&1.1 | -1.7&4.8 |
| COc1cc2nc(N3CCN(C(=O)C4COc5ccccc5O4)CC3)nc(N)c2cc1OC (stereo not given) | -0.26&-0.67&1.1 | 0.4 |
| COc1ccc(-c2cc(=O)c3c(O)cc(O[C@@H]4O[C@H](CO[C@H]5O[C@H](C)[C@@H](O)[C@H](O)[C@@H]5O)[C@@H](O)[C@H](O)[C@H]4O)cc3o2)cc1O | 0.045 | -1.5 |
| Cc1nnc(NS(=O)(=O)c2ccc(N)cc2)s1 | 0.12&0.25&0.59 | 2.4&-2.6 |
| Nc1nccs1 | 1.7 | -0.8 |
| CCC[C@H](N[C@@H](C)C(=O)N1[C@H](C(=O)O)C[C@@H]2CCCC[C@@H]21)C(=O)OCC | 0.38&0.18 | -0.5 |
| C=CC1=C(C(=O)O)N2C(=O)[C@@H](NC(=O)C(=NO)c3csc(N)n3)[C@H]2SC1 | 0.49 | x |
| O=C(O)COC(=O)Cc1ccccc1Nc1c(Cl)cccc1Cl | 0.89&-0.09 | 2.6 |
| CC(=O)[C@H]1CC[C@H]2[C@@H]3C[C@H](C)C4=CC(=O)CC[C@]4(C)[C@H]3[C@@H](O)C[C@]12C | -0.31 | -0.4 |
| c1ccc2c(CC3=NCCN3)cccc2c1 | -0.57&-0.2&0.58&-0.34 | -2.7&-1.7 |
| C[C@H]1COc2c(N3CCN(C)CC3)c(F)cc3c(=O)c(C(=O)O)cn1c23 | 0.55&0.46&-0.18&-0.19 | 0.0 |
| COc1cc(N)c(Cl)cc1C(=O)NC1CCN(CCCOc2ccc(F)cc2)CC1OC (stereo not given) | -0.15 | -3.5 |
| Cc1onc(-c2ccccc2Cl)c1C(=O)N[C@@H]1C(=O)N2[C@@H]1SC(C)(C)[C@@H]2C(=O)O | -0.1&0.22&0.81 | -2.1&0.8 |
| CC(C)Cc1ccc([C@H](C)C(=O)O)cc1 | -0.53 | 0.5 |
| O=C(O)[C@@H]1[C@H]2C[C@H]3c4[nH]c5ccccc5c4CCN3C[C@@H]2CC[C@@H]1O | -0.4 | -1.4 |

Some of these compounds in order of molar mass, smallest number first:
| SMILES | LANA-nucl inh | BasE inh |
| --- | --- | --- |
| N=C(N=C(N)N)N1CCOCC1 | 1.2&1.6 | -2.5 |
| Cc1nnc(NS(=O)(=O)c2ccc(N)cc2)s1 | 0.12&0.25&0.59 | 2.4&-2.6 |
| CC(=O)[C@H]1CC[C@H]2[C@@H]3C[C@H](C)C4=CC(=O)CC[C@]4(C)[C@H]3[C@@H](O)C[C@]12C | -0.31 | -0.4 |

Individual results from above.
Entry of COc1ccc(-c2cc(=O)c3c(O)cc(O[C@@H]4O[C@H](CO[C@H]5O[C@H](C)[C@@H](O)[C@H](O)[C@@H]5O)[C@@H](O)[C@H](O)[C@H]4O)cc3o2)cc1O under BasE inh: -1.5
Entry of CCCOc1ccccc1-c1nc2n[nH]nc2c(=O)[nH]1 under LANA-nucl inh: -0.001&-0.086&0.71&-0.48
Entry of NS(=O)(=O)c1cc2c(cc1C(F)(F)F)NC(Cc1ccccc1)NS2(=O)=O (stereo not given) under LANA-nucl inh: -0.56&0.54&-0.059
Entry of N=C(N=C(N)N)N1CCOCC1 under BasE inh: -2.5
Entry of Cc1nnc(NS(=O)(=O)c2ccc(N)cc2)s1 under LANA-nucl inh: 0.12&0.25&0.59

The main list resumes, repeating the 3 entries before the break.
| SMILES | LANA-nucl inh | BasE inh |
| --- | --- | --- |
| Cc1onc(-c2ccccc2Cl)c1C(=O)N[C@@H]1C(=O)N2[C@@H]1SC(C)(C)[C@@H]2C(=O)O | -0.1&0.22&0.81 | -2.1&0.8 |
| CC(C)Cc1ccc([C@H](C)C(=O)O)cc1 | -0.53 | 0.5 |
| O=C(O)[C@@H]1[C@H]2C[C@H]3c4[nH]c5ccccc5c4CCN3C[C@@H]2CC[C@@H]1O | -0.4 | -1.4 |
| O=C(O)CN1C(=O)c2cccc3cccc(c23)C1=O | -0.13&-0.49 | 0.3 |
| C[C@]12CC[C@H]3[C@@H](CCC4=CC(=O)CC[C@@]43C)[C@@H]1CC[C@@H]2C(=O)CO | -0.006 | -0.7 |
| CC(Oc1c(Cl)cccc1Cl)C1=NCCN1 (stereo not given) | 0.16&-0.49 | x |
| O=C(O)CCC/C=C\C[C@H]1C(=O)C[C@@H](O)[C@@H]1/C=C/[C@@H](O)CCc1ccccc1 | -0.085 | 0.7 |
| Nc1cc(-c2ccncc2)c[nH]c1=O | -0.67 | -2.7 |

Some of the compounds tested. The share of hits here may be higher or lower than overall.
